Source: PubChem (several laboratories)
RanGTP-Imp inh = inhibitors of RanGTP-importin-beta interaction, primary screen, biochemical, FRET, CFP-Ran, YFP-importin-beta, homogeneous | AID 2216 | cell-free CFP-Ran/YFP-importin-beta FRET ratio | inhibition, % (concentration not given with the values) | 1.1% of 300,000 active;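 active means most replicates above 15%; inconclusive means exactly half above 15%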;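 further: 0% = DMSO wells and 100% = Ran loaded with GDP instead of GTP; wells of about 40 µL received 100 nL stock; the first replicate is given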
HNF4A DNA FP = change in binding of human HNF4 alpha to DNA; HNF4a-FITC DNA binding, fluorescence polarization, 1 h; 0.3% of 360,000 active; AID 1224865; P41235; activity change, % at 10 µM; in the data active means activity change above about 30%, passing the limit was not always enough;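 further: controls were the assay level and a saturating level of protein; the project sought stronger binding though the title names inhibitors; some compounds called inactive have numbers as strong as hits; positive values seem to mean higher polarization but the record does not say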
Target sequence (P41235 whole entry, looked up): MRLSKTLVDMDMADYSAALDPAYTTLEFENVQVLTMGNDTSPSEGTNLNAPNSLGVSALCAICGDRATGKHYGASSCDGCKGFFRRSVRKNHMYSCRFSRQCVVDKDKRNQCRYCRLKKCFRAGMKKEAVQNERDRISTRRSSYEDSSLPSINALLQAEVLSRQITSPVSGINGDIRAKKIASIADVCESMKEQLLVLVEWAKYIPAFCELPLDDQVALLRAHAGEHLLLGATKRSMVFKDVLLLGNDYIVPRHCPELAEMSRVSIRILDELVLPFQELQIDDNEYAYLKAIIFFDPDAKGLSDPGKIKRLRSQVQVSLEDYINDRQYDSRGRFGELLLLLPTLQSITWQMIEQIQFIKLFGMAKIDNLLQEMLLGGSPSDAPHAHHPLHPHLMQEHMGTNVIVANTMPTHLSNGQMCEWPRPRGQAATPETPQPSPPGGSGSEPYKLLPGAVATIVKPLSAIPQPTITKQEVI
UCH37 DUB inh = human UCH37 deubiquitinating enzyme inhibition; Q9Y5K5; purified proteasome/UCH37, Ub-AMC cleavage fluorescence; inhibition, % (no concentration beside the values); 0.33% of 330,000 active;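 active means mean of two replicates above 20%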;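 further: 0% = compound-free wells with enzyme and 100% = wells lacking proteasome; stock transfer was 100 nL into about 20 µL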
Target sequence (Q9Y5K5 whole entry, looked up): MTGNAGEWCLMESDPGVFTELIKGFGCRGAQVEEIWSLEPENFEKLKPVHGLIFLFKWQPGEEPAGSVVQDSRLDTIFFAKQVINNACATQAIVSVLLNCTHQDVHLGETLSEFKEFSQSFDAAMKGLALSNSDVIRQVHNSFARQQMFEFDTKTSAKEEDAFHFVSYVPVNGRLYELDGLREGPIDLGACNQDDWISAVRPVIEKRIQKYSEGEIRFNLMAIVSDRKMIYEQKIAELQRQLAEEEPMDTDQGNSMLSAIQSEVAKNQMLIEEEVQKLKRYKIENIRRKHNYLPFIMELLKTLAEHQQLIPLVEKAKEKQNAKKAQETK
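assay system = human UCH37 enzyme supplied as purified proteasome complex | amount = proteasome at 0.15 nM in the dispensed enzyme solution | schedule = 30 min compound-proteasome preincubation then 25 min substrate reaction, room temperature | measured by = fluorescence, ex 355 nm, em 460 nm | benchmarks = no-proteasome wells (full inhibition) and compound-free wells (no inhibition)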
MLL AF4-AF9 inh = MLL-AF4/AF9 protein interaction inhibition. AlphaScreen, biotin-AF4 peptide binding to FLAG-AF9. inhibition, % at 10 µM. 0.47% of 350,000 active. AID 651704;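 active means every replicate reaching a set inhibition limit, whatever the replicate mean, cut at about 25% in these data; inconclusive means mean inhibition reaches that limit but some replicates miss it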;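 further: 0% = plate neutral control median and 100% = total signal loss; the record names both 10 and 1 µM as test concentration; the first replicate is given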
FGF22 binding = FGF22 (human) thermal shift binding | recombinant FGF22 thermal shift, SYPRO orange fluorescence; percent of sucrose octasulfate shift, DMSO zero | 1.5% of 340,000 active | Q9HCT0 | calls only at 9.99 µM | AID 651658;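 active means melting point raised past a set limit in the mean and every replicate; inconclusive means no clear call; three in four hits are not shown here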
Target sequence (Q9HCT0 whole entry, looked up): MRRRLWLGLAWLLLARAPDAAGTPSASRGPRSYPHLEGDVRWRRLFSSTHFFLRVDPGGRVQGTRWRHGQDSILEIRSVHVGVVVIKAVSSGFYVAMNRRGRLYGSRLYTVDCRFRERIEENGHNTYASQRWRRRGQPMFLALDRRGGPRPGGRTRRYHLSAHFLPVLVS
E coli growth = E. coli growth inhibition. Escherichia coli growth, OD600, 23 h; stronger effect = lower value. OD600 absorbance (test concentration not listed). 0.21% of 330,000 active;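 active means OD600 absorbance below the run mean of sample wells minus 3.6 SD, in any replicate, cut at about 0.56 in these data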;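 further: stock transfer was 300 nL into about 60 µL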
Vif TR-FRET = inhibitors of Vif binding to APOBEC3G peptide, primary screen, biochemical, TR-FRET, GST-Vif 1-94, biotin-A3G peptide, dose response retest (AID 1117319); inhibition, %; hits with a dose series show IC50 in µM; TR-FRET GST-Vif / biotin-A3G peptide binding; higher % means a stronger effect; test concentration not given here; strong numbers were not always called active; 0.57% of 260,000 active;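 active means above the screen mean plus three standard deviations and confirmed in dose response; inconclusive means results disagree or hit not tested in dose response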;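 further: Vif residues 1-94 fused to GST binding biotinylated APOBEC3G peptide 110-148; 0% = full assay without inhibitor and 100% = GST in place of GST-Vif; retest series ran down from 100 µM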
Starred values were filed as active, the others as inactive; i = inactive; ? = inconclusive; . = not tested or not shown; & = joins results of further samples. Not all compounds are listed. The share of hits here may be higher or lower than overall.

SMILES	RanGTP-Imp inh	HNF4A DNA FP	UCH37 DUB inh	MLL AF4-AF9 inh	FGF22 binding	E coli growth	Vif TR-FRET
COCCNC(=O)C(OC(=O)c1cccs1)c1ccc(F)cc1 (stereo not drawn)	-2.7	0.5	1.4	-0.5	i	0.63	1%
NC(=S)NN=C1CCCCCCCCC1	.	-1.4	.	2.9	i	.	.
C/C(Cc1ccccc1)=N\NC(=O)CNC(=O)c1ccc(Cl)cc1Cl	1.1	0.6	.	-1.3	i	.	15%
COc1ccc(CCN2CC34C=CC(O3)C(C(=O)NCc3ccccc3)C4C2=O)cc1OC (stereo not drawn)	2.1	2.2	-0.8	.	.	0.69	15%
COc1ccc(Cc2nc3ccc(C(=O)NCCc4cccc(C)n4)cc3o2)cc1	3.3	0.5	1.6	0.1	i	0.71	.
COc1ccc(OC)c(N(CC(=O)NN=C2CCN(C)CC2)S(=O)(=O)c2ccccc2)c1	-1.8	-0.8	2.2	0.7	i	0.69	.
O=C(O)CNC(=O)C(c1ccccc1)c1ccccc1	-5.6	-1.3	0.4	-2.1	i	0.66	-10%
O=C(CN1C(=O)NC2(CCc3ccccc32)C1=O)NCc1ccccc1Cl (stereo not drawn)	.	5.3	-2.3	1.3	i	0.66	.
O=c1[nH][nH]c(=O)n1-c1ccccc1	3.1	5.6	0.0	0.6	i	0.72	4%
CC1CN(c2nc3ccccc3nc2C(C#N)C(=O)NCc2ccc3c(c2)OCO3)CC(C)O1 (stereo not drawn)	-6.4	3.1	1.4	.	.	0.77	27%&6%
C#CCOC(=O)c1cc(Cl)c(=O)n(Cc2ccc(Cl)cc2Cl)c1	?	-0.4	4.4	3.8	i	0.66	0%
O=C1CNC(=O)c2c(nc3n2CCC3)N1	1.5	3.8	-1.7	9.1	i	0.67	3%
Cc1nc2sc(C(c3ccc(Cl)cc3)N3CC(C)OC(C)C3)c(O)n2n1 (stereo not drawn)	-3.0	-0.7	0.1	.	.	0.67	-1%
CN(c1ccc(C(=O)O)cc1)S(=O)(=O)c1ccccc1	-1.7	-0.9	-1.8	.	.	0.73	-1%
O=C(Cc1cc(=O)[nH][nH]1)N/N=C/c1cccc2ccccc12	0.3	7.5	.	.	.	.	18%
CCOC(=O)C1CCN(C(=O)Cn2nc(C)n3c(cc4cc(F)ccc43)c2=O)CC1	7.1	-1.2	0.6	-0.5	i	0.66	.
Cc1ccc(S(=O)(=O)N2CCCCC2)cc1C(=O)N1CCN(CCO)CC1	.	-3.7	3.2	2.3	i	0.7	.
O=C1N/C(=C/c2ccc(Br)s2)C(=O)N1c1ccccc1	-1.4	1.7	.	-2.4	i	.	-1%
Nc1ccn([C@@H]2O[C@H](C(=O)Nc3ccc(C(=O)N4CCCCC4)cc3)[C@@H](O)[C@H]2O)c(=O)n1	.	-0.3	.	-1.2	i	.	.
CCOC(=O)C1(Cc2cccc(OC)c2)CCN(C(C)CC(C)(C)O)CC1 (stereo not drawn)	2.5	-2.0	3.2	-0.4	i	0.68	-5%
O=C(NCc1cn2ccsc2n1)Nc1ccc(Cl)cc1	-0.6	-1.8	0.3	.	.	0.63	32%
Cc1ccc(N(C(=O)CNC(=O)c2ccco2)C(C(=O)NC2CCCC2)c2cccnc2)cc1C (stereo not drawn)	-4.2	-0.4	3.0	.	.	0.7	-1%
O=C(C[C@@H]1C/C=C\CC[C@@H](Cc2ccc(F)cc2)C(=O)OC[C@@H](Cc2ccccc2)NC1=O)NCCO	.	2.4	-1.4	-0.1	i	.	.
S=C(NCc1cccnc1)Nc1ccc(Cl)cc1Cl	?	-0.8	0.0	-0.9	i	0.64	-2%
CCCn1c(N)c(C(=O)CSc2nnc3ccccn23)c(=O)n(C)c1=O	.	-3.0	3.3	-0.3	i	0.69	0%

Brought forward from above: 2 entries; new compounds follow.
SMILES	RanGTP-Imp inh	HNF4A DNA FP	UCH37 DUB inh	MLL AF4-AF9 inh	FGF22 binding	E coli growth	Vif TR-FRET
S=C(NCc1cccnc1)Nc1ccc(Cl)cc1Cl	?	-0.8	0.0	-0.9	i	0.64	-2%
CCCn1c(N)c(C(=O)CSc2nnc3ccccn23)c(=O)n(C)c1=O	.	-3.0	3.3	-0.3	i	0.69	0%
O=C(Nc1ccccc1N1CCOCC1)c1cccc(NS(=O)(=O)c2ccc(F)c(F)c2)c1	0.1	10.0	3.0	0.1	.	0.68	-5%
O=C(CNc1ccccc1)N/N=C/c1c(O)ccc2ccccc12	-2.6	0.8	.	-0.2	i	.	.
CC(C)Cc1nnc(NC(=O)CCC(=O)N2CCCCC2)s1	0.0	2.0	2.8	-1.9	i	0.69	.
COc1ccc(-c2cc(=O)c(C(=O)c3ccc(C)cc3)n[nH]2)cc1	-0.9	6.4	2.1	-4.3	i	0.71	3%
Cc1cc(=O)oc2c(CN(CC(C)C)CC(C)C)c(O)ccc12	0.1	.	i	.	.	0.69	8%
Cc1ccc(NC(=O)C2CCN(S(=O)(=O)c3c(C)noc3/C=C/N(C)C)CC2)cc1	5.9	2.2	9.0	-3.9	i	0.65	10%
COc1ccc(NC(=O)Nc2ccc(C(=O)N3CCOCC3)cc2)cc1OC	6.6	3.1	2.0	-1.2	i	0.72	.
CCCN1C(=O)/C(=C\c2nc3ccccc3c(=O)[nH]2)c2ccccc21	.	0.1	3.0	2.4	i	0.68	.
CCc1c(C(C)S(=O)(=O)c2ccc(C)cc2)[nH]c(=O)n1-c1ccc(C)cc1 (stereo not drawn)	?	5.6	-0.2	.	.	0.71	19%
COc1ccc(C(=O)NC(=S)NCCc2ccccc2)cc1	-0.7	4.6	-0.5	-5.7	i	0.63	12%
COc1ccccc1N1CCN(C(=O)c2cccc3c(=O)c(C)c(-c4ccccc4)oc23)CC1	0.6	1.1	4.4	7.8	i	0.73	.
Cc1noc(C)c1COc1ccc(CC(=O)NCCc2ccccn2)cc1	-5.4	0.2	5.4	0.3	i	0.66	-3%
NC(=O)CSc1nnnn1-c1ccccc1Cl	2.5	1.2	1.7	-13	i	0.66	-9%
Cc1cc(C(=O)NCc2ccc3c(c2)OCO3)ccc1[N+](=O)[O-]	?	-4.0	1.4	1.5	i	0.65	.
CCn1c(N2CCN(S(=O)(=O)CC)CC2)nc2ccccc21	3.1	2.2	1.6	-1.0	i	0.67	-2%
CS(=O)(=O)c1ccc(Cl)c(NC(=O)C2CC(=O)N(Cc3ccco3)C2)c1 (stereo not drawn)	-2.5	-2.5	0.2	-0.9	i	0.66	6%
Cc1cc(O)c(/C=N/Nc2ccccc2Cl)c(=O)o1	?	-2.1	.	.	.	.	25%
N#CCCn1cc(C(=O)O)c(-c2ccc3ccccc3c2)n1	3.4	3.4	0.2	-1.1	i	0.62	-2%
CCOC(=O)CSc1nc(N)c(C#N)cc1C#N	-12	8.8	-11	0.5	i	0.63	.
CSc1ccc(C(=O)NCC(=O)O)cc1[N+](=O)[O-]	0.9	-4.2	4.5	4.1	i	0.71	-3%
COc1cc(/C=C(\C#N)C(=O)NC2CCCCC2)ccc1OCc1ccc(C(=O)O)cc1	21*	2.3	2.5	1.3	i	0.68	9%
NC(=O)c1nsc(C(=O)N(c2ccccc2)C(C(=O)NCC2CCCO2)c2cccs2)c1N (stereo not drawn)	3.2	2.8	.	-2.0	i	.	10%
Cc1cccc(C2=NN(c3ccccc3)[C@H](CO)[C@H]2c2ccc(F)cc2)c1	.	11	i	-21	i	0.71	-2%
COc1ccc2c(c1)C=C(CN1CCN(Cc3ccccc3C)C(CCO)C1)CO2 (stereo not drawn)	-1.7	3.3	1.1	6.6	i	0.67	.
Cc1nc2[nH]onc2c2nccc(=O)c12	-2.7	-2.0	1.7	.	.	0.73	2%
COc1ccc2nc(NN=C(C)c3ccccn3)cc(C)c2c1	.	-3.3	.	7.0	i	.	5%
CCOc1ccccc1NC(=S)NC1CC2CCC1C2 (stereo not drawn)	0.0	0.0	2.8	.	.	0.65	-9%
Cc1ccc(Nc2nnc(SCc3nc4ccccc4c(=O)[nH]3)s2)cc1	-0.2	-3.0	4.6	-5.8	i	0.68	3%
Cc1cc(O)c(NC(=S)NC(=O)c2ccc(-c3ccc(Cl)cc3)o2)cc1C	-3.4	-1.7	7.2	.	.	0.74	8%
COCCN(C(=O)Nc1ccc(F)cc1F)c1nc2ccccc2s1	-0.9	6.3	5.0	1.1	i	0.63	.
CCNc1nc(N2CCOCC2)nc(N(c2ccccc2)c2ccccc2)n1	-1.1	1.8	3.9	.	.	0.73	-3%
Cc1cccc(-n2c(SCC(=O)N(C)C3CCS(=O)(=O)C3)nc3ccccc3c2=O)c1C (stereo not drawn)	?	1.9	2.0	-0.6	i	0.68	-12%
CC(C)OC(=O)N(C)C[C@@H]1OCc2cn(nn2)CCCC(=O)N([C@H](C)CO)C[C@H]1C	.	-2.7	.	0.5&-0.7	i	.	2%
Cc1cccc(C(=O)Nc2cc(OCc3cccc(F)c3)c(Cl)cc2Cl)c1	2.8	4.1	-1.2	.	.	0.72	-2%
CC(C)Oc1ccc(C(=O)Nc2ccccc2N2CCCC2)cc1	-3.6	-4.8	5.2	.	.	0.67	4%
O=C(Nc1cccc2ccccc12)c1cn(-c2ccccc2)nc1-c1cccs1	1.8	-1.5	-4.0	4.5	i	0.77	1%
OCCN=C1CCCc2c1[nH]c1ccc(Br)cc21	1.1	4.3	-0.2	.	.	0.76	1%
CC(C)Nc1nc(NC(N)=S)nc(NC(C)C)n1	0.8	0.6	1.8	.	.	0.68	3%
CC(=O)NC12CC3CC(C1)CC(C(=O)N1CCN(S(=O)(=O)c4cccs4)CC1)(C3)C2	.	2.4	-1.0	-3.8	i	0.68	-20%
CCOC(=O)N1CCC(NC(=O)C2CCCCN2S(=O)(=O)c2ccc(F)cc2)CC1 (stereo not drawn)	-2.9	-1.5	3.6	0.8	i	0.73	31%
COC(=O)C1=C(C)NC2=C(C(=O)CC(C)(C)C2)C1c1ccsc1 (stereo not drawn)	2.6	1.7	-67	.	.	0.77	7%
CN1CCN(CCNC(=O)Nc2ccc(Cl)cc2)CC1	-5.5	3.1	3.6	-1.2	i	0.69	.
C/C(N)=C(/C#N)C(=O)CSc1nc2ccccc2c(=O)n1Cc1ccc(C)cc1	1.4	0.0	-0.9	-0.5	i	0.65	.
N#Cc1ccc(CSc2nc(N)cc(N)n2)cc1	5.4	0.4	.	-1.3	i	.	-3%
COc1ccccc1C(=O)NC(=O)CSc1nnc(N)s1	.	1.5	-1.1	-2.0	i	0.69	-3%
C[C@@H]1O[C@H](C2CCCC2)CC2=C1C(=O)OC(C)(C)O2	.	1.9	.	-2.0	i	.	.
Cc1ccc(NC(=O)CCC(=O)N/N=C/c2coc3ccc(F)cc3c2=O)cc1	0.8	2.6	.	-2.3	i	.	.
Cc1ccc(S(=O)(=O)NC(=O)C2(C)CCN2C(=O)CCc2ccc(Cl)cc2Cl)nc1 (stereo not drawn)	.	-2.5	.	-1.1	i	.	.
CC(=O)c1cccc(S(=O)(=O)N2CCCC(c3nc(-c4ccc(C)o4)no3)C2)c1 (stereo not drawn)	-4.0	-1.5	1.6	.	.	0.7	2%
COC(=O)c1ccc(C)cc1	.	-0.4	-1.5	-3.8	i	0.73	.
